Source: PubChem
AmpC nodet inh: Promiscuous and Specific Inhibitors of AmpC Beta-Lactamase (assay without detergent); P00811; Potency, µM (titrated, usually from 28.7 µM), for the others: at the top dose activity change, negative = inhibition; 1.8% of 71,000 active; AID 585, 2007; AmpC nitrocefin hydrolysis, absorbance 480 nm, no detergent; potencies from a single point are estimates; active = falling curve, for most hits resting on a single point; inconclusive = weak or doubtful change; inactive = flat or rising curve; note: % of control where 0% means no effect; about half of the hits show no inhibition at the top dose; a quarter of the inactives give rising signals
Target sequence (P00811 whole entry, looked up): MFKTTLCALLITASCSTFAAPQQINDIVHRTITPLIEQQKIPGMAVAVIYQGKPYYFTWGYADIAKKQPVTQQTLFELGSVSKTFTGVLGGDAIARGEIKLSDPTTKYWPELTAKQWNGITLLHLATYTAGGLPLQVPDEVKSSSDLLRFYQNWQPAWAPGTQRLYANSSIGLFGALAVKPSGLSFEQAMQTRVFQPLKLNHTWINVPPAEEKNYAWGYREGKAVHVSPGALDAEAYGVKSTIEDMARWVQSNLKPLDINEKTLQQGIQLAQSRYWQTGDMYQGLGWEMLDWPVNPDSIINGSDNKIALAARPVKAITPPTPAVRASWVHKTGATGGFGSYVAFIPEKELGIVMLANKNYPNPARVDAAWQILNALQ
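Enzyme, pH 7.0 phosphate. Compound titrations were pre-incubated with AmpC for 15 min at room temperature before nitrocefin (stock 800 uM) addition; product formation was recorded at 480 nm every 20 s for 4 min.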
Numbers without * were called inactive; ? = inconclusive; & = joins results of further samples; [ ] = another dose, or the depositor's remark. Potency is the fitted concentration of half-maximal effect.

The opening 5 records as a preview:
SMILES	AmpC nodet inh
CN1[C@@H]2CC[C@H]1CC(O[C@@H](c1ccccc1)c1ccc(Cl)cc1)C2 (some centres undefined)	99.0%&49.4%
COC(=O)Nc1cc(C)nc2ccccc12	-8.4%
O=C(NCc1cccnc1)NC1(c2ccccc2)CC1	7.2%
NC(=O)CSc1ccc(Br)cc1	-3.9%
CN(C)CCOCCP(=O)(c1ccccc1)c1ccccc1	13.2%

The whole of this part (from the top)
SMILES	AmpC nodet inh
CN1[C@@H]2CC[C@H]1CC(O[C@@H](c1ccccc1)c1ccc(Cl)cc1)C2 (some centres undefined)	99.0%&49.4%
COC(=O)Nc1cc(C)nc2ccccc12	-8.4%
O=C(NCc1cccnc1)NC1(c2ccccc2)CC1	7.2%
NC(=O)CSc1ccc(Br)cc1	-3.9%
CN(C)CCOCCP(=O)(c1ccccc1)c1ccccc1	13.2%
CC(=O)N1CCN=C1SCc1ccc(Cl)cc1	23.4%
Cn1c(=O)c2c(nc(NCCNC(=O)c3ccco3)n2Cc2ccccc2Cl)n(C)c1=O	11.5%
O=[N+]([O-])c1cc(C(F)(F)F)ccc1Cl	0.0%
Cc1cc2c(c(=O)n1Cc1ccco1)C(c1cccnc1)C(C#N)=C(N)O2 (centres undefined)	-9.4%
CCC(OC(=O)c1ccco1)C(=O)NCc1ccco1 (centres undefined)	15.7%
Cn1c(SCC(=O)c2cccs2)nnc1-c1ccco1	-0.6%
CSc1ccccc1NC(=O)CN(c1cccc(C)c1)S(C)(=O)=O	28.2%
Cc1nn(CC(=O)N(C)C)c(=O)c2ccccc12	-0.5%
Cc1ccc2c(CC(=O)O)coc2c1C	-6.3%
O=c1[nH]c2ccc(Cl)cc2c(-c2ccccc2)c1N1CCOCC1	26.3%
C=CCn1c(SCc2cc(=O)n3ccsc3n2)nc2scc(C3CC3)c2c1=O	58.9%
Cc1ccc2cc(CN(C(=O)C3CCCO3)C3CCCCC3)c(=O)[nH]c2c1 (centres undefined)	16.2%
Cc1ccc(C)n1/N=C1/NC(=O)CS1	2.2%
COc1cc2c3cc1Oc1cc(ccc1O)C[C@@H]1c4c(cc(OC)c(O)c4Oc4ccc(cc4)C[C@H]3[N+](C)(C)CC2)CC[N+]1(C)C	18.7%[5.75 µM]
CC(C)(C)OC(=O)NCCCCCc1nnc(SCC(=O)Nc2cccc(Cl)c2)o1	56.1%
C(=NCCN1CCOCC1)=NC1CCCCC1	5.1%[5.75 µM]
O=[N+]([O-])c1cc([N+](=O)[O-])c2ccccc2c1	-2.6%
CC(=O)OC/C=C(C)/C=C/C=C(C)/C=C/C1=C(C)CCCC1(C)C	58.0%
Cc1nnc2n1N=CC=C(C(C)(C)C)S2	4.1%
CCCCC(=O)NCCc1cc2ccc(OC)cc2[nH]c1=O	10.7%
COc1cc(N2C(=O)c3ccccc3C2=O)c(Cl)cc1C(=O)OCC(=O)NCc1ccco1	62.0%
O=c1c2oc3ccccc3c2ncn1Cc1ccccc1Cl	-0.3%
CCCNC(=O)c1ccccc1C(=O)NCCC	-4.1%
O=C(Nc1ccc2nsnc2c1)c1ccc2c(c1)OCO2	-14.4%
Cc1cc(C)c2c(n1)nn1c(NCCOCCO)cc(C)nc21	71.0%
CN(CC(=O)N1CCN(c2ccccn2)CC1)S(=O)(=O)c1ccc(Br)cc1	52.2%
CCOCN(C(=O)CCl)c1c(C)cccc1CC	-4.7%
Cc1ccc(S(=O)(=O)NC(=O)Nc2ccc(Cl)cn2)cc1	-2.4%
Nc1nnnn1/N=C/c1ccccc1C(F)(F)F	-0.4%
CCc1cccc(NC(=O)CN(C)S(=O)(=O)c2cccc3nsnc23)c1	-17.4%
CC1=C(C(=O)OC2CCCCC2)C(c2ccc(C)o2)C2=C(CC(C)(C)CC2=O)N1 (centres undefined)	72.7%
O=C(Nc1ccc2c(c1)OCCO2)C1CCN(C(=O)c2ccc(F)cc2)CC1	38.0%
CCN1CCN(CC(O)COCc2ccccc2)CC1 (centres undefined)	-5.2%
O=C(O)C(Cc1ccccc1-c1ccccc1)C(=O)O	1.1%[5.75 µM]
CN1CCC[C@@H](CC2c3ccccc3Sc3ccccc32)C1	28.8%[12.8 µM]

Part of the list above, with bars between the fields:
Structure | AmpC nodet inh
CC1=C(C(=O)OC2CCCCC2)C(c2ccc(C)o2)C2=C(CC(C)(C)CC2=O)N1 (centres undefined) | 72.7%
O=C(Nc1ccc2c(c1)OCCO2)C1CCN(C(=O)c2ccc(F)cc2)CC1 | 38.0%
CCN1CCN(CC(O)COCc2ccccc2)CC1 (centres undefined) | -5.2%

(further entries)
SMILES	AmpC nodet inh
COCCNC(=O)Cn1cnc2c1c(=O)n(C)c(=O)n2C	-3.6%
CN(C)C(=O)[C@]1(C)C[C@H]1[C@H](NC(=O)CNC(=O)[C@@H]1CCCN1C(=O)[C@]1(C)C[C@H]1[C@H](NC(=O)OCc1ccccc1)c1ccccc1)c1ccccc1	153.9%
CCOC(=O)c1cnc2c(C#N)c(C)nn2c1C	-7.1%
Cc1cccc(OCCC(=O)NCC(c2ccccc2)N(C)C)c1 (centres undefined)	25.9%
Nc1nc(SCC(=O)NCc2ccco2)[nH]c(=O)c1-c1ccccc1	2.3%
CSC1=C(C#N)C(c2ccccc2C)C(C#N)=C(N)N1 (centres undefined)	-20.2%
COc1ccc(C2(C(=O)NCCN3CCOCC3)CCOCC2)cc1	-7.6%
CCC(=O)NCCc1cc2ccc(C)c(C)c2[nH]c1=O	-3.4%
O=S(=O)(NC1CCCCC1)c1ccc(S(=O)(=O)N2CCN3CCCC3C2)cc1 (centres undefined)	52.0%
Fc1ccc(-c2nnc(CN3CCC(c4nc5ccccc5s4)CC3)o2)cc1	131.5%
Cc1ccc(Cl)cc1N	-11.1%
O=C(Nc1ccc(S(=O)(=O)N2CCOCC2)cc1)c1cccs1	6.2%
Clc1ccc(OCCn2ccnc2)c2ccccc12	61.2%
CCCn1c(SCC(=O)Nc2ccc3c(c2)OCCO3)nnc1-c1ccco1	26.8%
COc1ccc(-c2nc(N)ncc2Oc2ccccc2Br)c(O)c1	0.3%
Cc1cccn2c(=O)c(C=Nc3c(C)n(C)n(-c4ccccc4)c3=O)c(N3CCCC3)nc12	18.4%
O=C(CN1CCN(c2ccccn2)CC1)NCc1cccs1	61.2%
COC(=O)[C@@]1(Cc2ccccc2)[C@H]2c3cc(C(=O)N4CCCC4)n(Cc4ccc(C(F)(F)F)nc4)c3C[C@H]2CN1C(=O)c1ccccc1	139.4%
O=C(Oc1ccc(-c2ccccc2)cc1)N1CCOCC1	46.1%
Cc1cc(=O)[nH]c(Cc2ccc(OC(C)C)cc2)n1	-4.1%

A run of entries taken from the entries so far:
SMILES	AmpC nodet inh
CCC(=O)NCCc1cc2ccc(C)c(C)c2[nH]c1=O	-3.4%
O=S(=O)(NC1CCCCC1)c1ccc(S(=O)(=O)N2CCN3CCCC3C2)cc1 (centres undefined)	52.0%
Fc1ccc(-c2nnc(CN3CCC(c4nc5ccccc5s4)CC3)o2)cc1	131.5%
Cc1ccc(Cl)cc1N	-11.1%

Following part.
SMILES	AmpC nodet inh
CSc1ccc(S(=O)(=O)Nc2c(C)cccc2C)cc1	?
CCOC(=O)N1CCN(C(=O)Cc2ccc(-n3c(=S)[nH]c4ccccc4c3=O)cc2)CC1	32.2%
COc1cc2nc(SCC(=O)NCCc3ccccc3)n(Cc3ccco3)c(=O)c2cc1OC	58.3%
C[C@@H](/C=C\c1cccc(Oc2ccc(F)cc2)c1)N(O)C(N)=O	105.8%&32.9%
CCC(C)(C)n1nnnc1CN1CCC(c2nc3ccc(C)cc3[nH]2)CC1	49.6%
CCOC(=O)c1c(C)n(CC(O)c2ccccc2)c2ccc(O)cc12 (centres undefined)	3.2%
COc1cc(OC)c(C2Oc3nc(SC)nnc3-c3ccccc3N2C(C)=O)cc1OC (centres undefined)	69.5%
CCn1nc(C(=O)N2CCc3ccccc3C2)c2ccccc2c1=O	21.5%
CC(C)c1ccccc1NC(=O)c1ccco1	-2.5%
CCCn1c(/N=C/c2cc(OC)ccc2O)nc2ccccc21	62.0%
CC(C)c1nc(SCC(=O)Nc2cccc(C(F)(F)F)c2)c2c(=O)n(C)c(=O)n(C)c2n1	22.1%
Cc1ccc(C(=O)OCC(=O)Nc2ccc3c(c2)OCO3)o1	-8.1%
O=C(COc1cc(Cl)c(Cl)cc1Cl)Nc1ccncc1	-1.8%
OCCCN1c2ccccc2Nc2nnc(-c3ccccc3)cc21	-9.2%
CCN(CC)CCCNc1nnc(C)c(=O)[nH]1	-3.5%
CNc1nc(-c2c(C)noc2C)nc2ccccc12	2.3%
N#Cc1ccc(CN2CCCC3(CCN(S(=O)(=O)c4ccccc4)CC3)C2)cc1	39.6%
Fc1ccc(NCc2nnc(SCc3nnc(-c4ccccc4)o3)n2CC2CCCO2)cc1 (centres undefined)	97.5%
CCN(CC)c1ccc2c(c1)CCCN2	3.7%
CCCCOc1ccc(C(=O)Nc2ccncc2)cc1	11.2%
COc1ccc(S(=O)(=O)NCCCCNS(=O)(=O)c2ccc(OC)cc2)cc1	-5.8%
CCOC(=O)N1CCN(C(=O)C2CCCN(S(C)(=O)=O)C2)CC1 (centres undefined)	-11.5%
Cc1cc(C)cc(Nc2cc(C)nc3nc(C)nn23)c1	33.6%
c1ccc2c(NCCN3CCOCC3)nc(-c3ccc4c(c3)OCO4)nc2c1	80.5%
CN1C(=O)C(O)(CC(=O)c2ccc(F)cc2)c2cc(Br)ccc21 (centres undefined)	25.5%
Nc1ccc2nc(-c3ccc(Cl)cc3)[nH]c2c1	-2.6%
Cc1ccc(OCC(=O)NCCN2CCCC2)cc1	-11.9%
O=C(c1ccc2c(c1)OCO2)N(c1ccccc1)C1C=CS(=O)(=O)C1 (centres undefined)	-2.7%
CCOC(=O)N1CCN(C(=O)c2cc(Cl)c(Cl)cc2C(=O)O)CC1	-5.7%
Nc1cc(C(=O)O)c(O)c(S(=O)(=O)O)c1	-12.7%
O=C(Cc1ccccc1I)Nc1ccccc1	-9.4%
CCOC(=O)CNc1c(-c2ccc(O)cc2)nc2ccccn12	-9.3%
CC(C)(CN)CN	2.1%[5.75 µM]
COCc1c(Br)c(C)nc(OCC(=O)O)c1C#N	8.6%
O=C1NC(c2ccccc2)(C(F)(F)F)SC2=CCCCCN12 (centres undefined)	-5.2%
CCOc1ccc2nc(NC(=O)C(CCSC)NS(=O)(=O)c3cccs3)sc2c1 (centres undefined)	-24.7%
N#CC(C(=O)Nc1cccc(Cl)c1)=C1Nc2ccccc2N1	-22.9%
CC1=C(C(=O)Nc2ccc(C)cc2)C(c2ccc(N(C)C)cc2)NC(=O)N1 (centres undefined)	24.2%
O=C1CCCC(=NCc2ccco2)C1	-2.4%
CC(C)CCn1c(CN2CCN(Cc3ccccc3)CC2)nc2c1c(=O)n(C)c(=O)n2C	117.3%
FC(F)(F)c1ccccc1-c1ccc2ncnc(NCc3cccs3)c2c1	2.7%
CCC/C=C(\CCC)C(NS(=O)(=O)c1cccc2cccnc12)c1ccc(-c2ccccc2)cc1 (centres undefined)	-12.6%
CCCCOc1ccc(NC2=NC3(CCCC3)N=C(N)N2)cc1	0.7%
Cc1ccc(C(=O)Nc2ccccc2C(=O)NCc2ccco2)cc1S(=O)(=O)N1CCCCC1	-3.9%
O=C(O)/C=C\C(=O)Nc1ncn[nH]1	9.7%[5.75 µM]
Cn1c(CSc2nc3ccc(Br)cc3[nH]2)nc2ccccc21	14.7%
Cc1nc2cc(NC(=O)COc3ccc(C#N)cc3)ccc2n1-c1ccccc1	64.8%
c1ccc(-c2nc[nH]c2-c2ccccc2)cc1	-4.8%
Cc1ccc(-c2nn3c(C)nnc3s2)cc1NCc1c(F)cccc1Cl	89.5%
O=C(CCn1c(=O)oc2ccccc21)Nc1nccs1	-14.1%
Cc1ccc(S(=O)(=O)N2CCN(C(=O)COC(=O)COc3ccccc3)CC2)cc1	44.1%
CS(=O)(=O)N1CCN(C(=O)c2ccncc2)CC1	2.7%
CC(=O)c1sc(NC(=O)c2ccccc2F)nc1C	7.7%
COc1ccccc1CCn1c(=O)c(-c2ccc(F)c(F)c2)nc2cncnc21	12.4%
NCC(O)COc1ccc2c(c1)OCO2 (centres undefined)	-6.3%
CC(C)(C)c1ccc(C(=O)N2CCC(C(=O)NCc3ccncc3)CC2)cc1	58.0%
CC(=O)OCP(C)(=O)COC(C)=O	-13.5%
OC1CCCN(Cc2cccc3ccccc23)C1 (centres undefined)	4.1%
CC(=O)Nc1c2c3c(cccc3n(C)c1=O)C(=O)c1ccccc1-2	-2.6%
CC(c1ccccc1)n1cc(C(=O)NCc2ccccn2)nn1 (centres undefined)	-4.2%

The listing continues.
SMILES	AmpC nodet inh
CC(CN1CCCCC1)OC(=O)c1ccc2c(c1)OCO2 (centres undefined)	-10.1%
Cc1ccc(NC(=O)CSc2nnc(COc3ccc(C#N)cc3)n2-c2ccccc2)cc1C	-13.3%
Cc1cc(=O)n2nc(N3CCCC(C(=O)N4CCOCC4)C3)sc2n1 (centres undefined)	-5.7%
COc1ccc(CNC(=O)c2ccc(NC(=O)C3CCCO3)cc2)cc1 (centres undefined)	3.1%
Cc1ccc2c(c1)nnn2C1CCN(CC(=O)NCCc2nc3ccccc3[nH]2)CC1	76.6%
COc1ccc(-c2noc(CCC(=O)NCCCN3CCC(Cc4ccccc4)CC3)n2)cc1	114.3%
COC(=O)c1ccccc1NC(=O)c1cc(C2CC2)on1	6.0%
C=CCN(CC(=O)NCC1CCCO1)C(=O)CCC(=O)Nc1cc(C)on1 (centres undefined)	-15.7%
NC1(C(=O)NC2(C(=O)O)CCCC2)CCCC1	-3.2%[5.75 µM]
COc1ccc(C(C)N2CC34C=CC(O3)C(C(=O)OCC(C)C)C4C2=O)cc1 (centres undefined)	3.98µM*[single pt active]
CC(N=Cc1cccc(O)c1O)c1ccccc1 (centres undefined)	-8.9%

As entered above:
`COC(=O)c1ccccc1NC(=O)c1cc(C2CC2)on1` in AmpC nodet inh = 6.0%
`CC(N=Cc1cccc(O)c1O)c1ccccc1` (centres undefined) in AmpC nodet inh = -8.9%
`COc1ccc(-c2noc(CCC(=O)NCCCN3CCC(Cc4ccccc4)CC3)n2)cc1` in AmpC nodet inh = 114.3%

Some of the compounds tested, so the mix of outcomes need not match the whole.
